Source: PubChem BioAssay (several laboratories)
Sa RN4220 lethal: S. aureus RN4220 growth inhibition; OD600, 16 h; inhibition, % (no concentration beside the values); 330,000 compounds, 0.33% hits;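 active = z-score of -3 or lower and OD600 up to 0.18 on both plates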;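 also: plate controls were untreated cells for no effect and reference antibiotic for full effect; stock transfer was 100 nL into about 80 µL; one replicate is shown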
PrP UTR inh: inhibition of PrP 5' UTR reporter expression. cell-based PrP 5' UTR mRNA reporter, plate reader. inhibition, % (no concentration beside the values). 340,000 compounds, 0.35% hits;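 active = every replicate at 50% or more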;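 also: 0 = median of the neutral control wells; tested in H4 reporter cells; numbers are from one replicate; inactives centre near -14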
ugtP null kill: growth inhibition of S. aureus ugtP deletion strain; growth inhibition, % (concentration not given with the values); S. aureus RN4220 ugtP deletion, OD600 growth, 16 h; some inactives read as strong as hits; AID 1259309; 330,000 compounds, 0.54% hits;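 active = z-score under -3 and OD600 up to 0.15 on both plates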;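 also: plate controls were untreated wells for no effect and antibiotic for full effect; wells of about 80 µL received 100 nL stock; the first replicate is given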
Autofluor counter: flagged as autofluorescent in microsphere protease counterscreen; fluorescence intensity (no concentration beside the values); 360,000 compounds, 3.1% hits; compound autofluorescence counterscreen, microsphere flow cytometry; active compounds read high;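 active = at least 3 SD above the mean of all compounds, about 16000 in these data; inconclusive = too few beads counted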;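 also: 100 nL of 1 mM stock went into each well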
Mtb hypoxia rep: inhibitors of hypoxia-regulated fluorescent reporter in Mycobacterium tuberculosis; 300,000 compounds, 0.1% hits; AID 1159583; fluorescence inhibition, % (no concentration beside the values); M. tuberculosis hypoxia-regulated fluorescent reporter, fluorescence;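 active = 35 to 45% if threefold the growth effect, above 45% if 1.5-fold the growth effect; inactive = the rest, general growth blockers included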;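 also: wells of about 50 µL received 100 nL stock; 0% = vehicle wells and 100% = reference inhibitor wells; whole bacteria with a GFP reporter of the hypoxia response; strong numbers were not always called active; many hits fall short of the cut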
BJeLR viability: BJeLR cell viability loss. AID 1554. BJeLR (HRASV12) viability, CellTiter-Glo ATP luminescence, 48 h; reference of the scale not given here. inhibition, % (test concentration not listed). 300,000 compounds, 0.17% hits;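 active = replicate mean above 50%; inconclusive = above 50% but judged a plate artefact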;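 also: 50 nL library stock added to about 25 µL; numbers are from one replicate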
Mtb hypoxia rep growth: recorded beside Mtb hypoxia rep, whose call it bears; growth inhibition, %; measured here: M. tuberculosis growth (absorbance);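 0% = vehicle and 100% = reference antibiotic; read after six days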
* marks the source's active call; other numbers are inactive results; ? = inconclusive; nt = no result given.

SMILES	Sa RN4220 lethal	PrP UTR inh	ugtP null kill	Autofluor counter	Mtb hypoxia rep	Mtb hypoxia rep growth	BJeLR viability
CC(C)(C)NC(=O)NC(=O)COC(=O)c1cc[n+]([O-])cc1	-0.5	-22	0	4306	-9	-2	1
COc1cc2c(cc1OC)C(c1cccc(C)c1)CC(=O)N2 (stereo unspecified)	nt	-16	nt	2478	nt	nt	7
Cc1ccc(-n2nc(C)c(=O)c(-c3ccccc3)c2NC(=O)c2cccs2)cc1	1.3	-10	1	4346	3	3	-4
Cc1cccc(-n2cc[nH]c2=S)c1C	2.4	-18	6	2224	7	7	-15
COC(=O)c1ccc(CNC(=O)CN(CCC(C)C)S(=O)(=O)c2ccc3c(c2)OCCO3)cc1	nt	-18	nt	10350	nt	nt	5
O=C(COC(=O)CCC(=O)c1ccc(F)cc1)Nc1cccc(S(=O)(=O)N2CCCC2)c1	2.4	-14	3	4833	5	7	1
COc1cc[n+]([O-])cc1[N+](=O)[O-]	0.1	-22	1	3423	9	13	nt
Cc1ccc(S(=O)(=O)CC(=O)N2CCOCC2)cc1	1.8	-12	2	4513	9	-2	-3
CC(=O)n1cc(C(C[N+](=O)[O-])SCCN)c2ccccc21 (stereo unspecified)	0.8	-28	5	4445	12	16	2
Cc1ccc(C(=O)Nc2nnc(-c3ccncc3)s2)o1	2.5	-44	-2	20328*	1	5	16
CCCC1(C(=O)OCC)NC(c2ccco2)C2C(=O)N(C)C(=O)C21 (stereo unspecified)	8.4	-9	7	4256	4	9	-2
Nc1nc2c(nc(Br)n2[C@@H]2O[C@@H]3COP(=O)(O)O[C@H]3[C@H]2O)c(=O)[nH]1	nt	-6	nt	4573	nt	nt	2
O=C1NC(=O)[C@]2(Cc3ccccc3N3CCN(c4ccccc4)CC32)C(=O)N1c1ccccc1 (stereo partly specified)	5.4	-22	-7	24028*	0	10	-2
Cc1cc(C(=O)N/N=C/c2cccn2C)n[nH]1	nt	-6	nt	2435	nt	nt	13
CCOC(=O)C1CCN(C(=O)c2cc3cc(Br)ccc3oc2=O)CC1	-2.5	-16	11	3482	-1	10	5
CC1=C(C(=O)OCc2ccccc2)C(/C=C/c2ccccc2)NC(=S)N1 (stereo unspecified)	-1.6	-23	14	1951	5	-4	13
COc1cccc(OC)c1C(=O)Nc1sc2c(c1C(N)=O)CCCC2	-3.8	nt	-12	4462	8	10	-4
COc1ccc(C)cc1Nc1cc(C)nc2nc(C)nn12	-3.3	-12	-3	4353	nt	nt	-6
CN(C(=O)COC(=O)c1cc(=O)[nH]c2ccccc12)c1c(N)n(Cc2ccccc2)c(=O)[nH]c1=O	3.3	-57	-5	5287	4	3	-16
CC(C)(C)NC(=O)CN(Cc1cccs1)C(=O)CN1C(=O)C(=O)c2ccccc21	5.5	-5	6	3311	15	14	0
COc1ccc(N(CC(=O)Nc2ccccc2C(=O)N2CCCC2)S(=O)(=O)c2ccccc2)cc1	-3.4	-10	-11	?	-7	0	5
N#Cc1cc2c(nc1SCC1COc3ccccc3O1)CCC2 (stereo unspecified)	2.1	-38	9	3548	7	8	-4
COc1ccc(CN(C(=S)Nc2ccccc2)C2CC(=O)N(c3ccc(Cl)cc3)C2=O)cc1 (stereo unspecified)	3.7	-20	-35	6092	nt	nt	-2
O=C1CN(c2ccc(Cl)cc2)C(=O)CN1NC(=S)Nc1ccc(Cl)cc1	5.1	-13	4	2279	8	12	1
CC(C)(C)OC1NS(=O)(=O)OCC1NCOC(Cl)(Cl)Cl (stereo unspecified)	nt	-16	nt	4584	nt	nt	-20
COc1cc(CN2CCN(C(=O)c3ccccc3F)CC2)cc(OC)c1OC	0.9	-31	7	4247	9	3	0
CC(=O)c1nc2ccccc2n1S(=O)(=O)c1ccc(C)cc1	3.7	-7	2	16071	8	9	-2
CCOc1cc(C(=O)NCc2ccc(C)cc2)ccc1OCC(=O)N1CCOCC1	2.5	-11	1	2483	8	-9	-3
COc1ccc(C)cc1C(=O)CCC(=O)Nc1ccccc1N1CCOCC1	3.2	-5	-3	3863	2	4	-16
N#CC(C#N)=C1NC2(CCCCC2)Cc2ccccc21	2.7	-12	22	4414	13	-5	14
C/C(CC(=O)Nc1c(C)cc(C)cc1C)=N\NC(=O)Cc1ccccc1	nt	-4	nt	4396	nt	nt	-1
COc1cc(-c2nc3cc(C)ccn3c2NC2CCCCC2)ccc1-c1ccc(C(C)=O)cc1	-1.5	-10	1	23646*	-18	-7	3
CC(C)NC(=S)N/N=C/c1ccc(C(C)(C)C)cc1	nt	-26	nt	3233	nt	nt	-21
O=C(O)CSCNC(=O)C12CC3CC(CC(C3)C1)C2	-0.2	-4	0	16463*	6	4	-3
O=S(=O)(c1ccc(F)cc1)N1CCN(S(=O)(=O)c2ccc3c(c2)OCCO3)CC1	2.5	-5	4	4243	16	5	nt
O=C(COc1ccccc1)Nc1cccc2c1CCCC2	-11	-8	0	3276	nt	nt	-3
COc1ccc(Cl)cc1NC(=O)COC(=O)c1ccc(C)o1	2.5	-47	1	5044	-3	1	nt
O=C(NN=C/C=C/c1ccccc1[N+](=O)[O-])c1cccnc1	-0.1	nt	1	nt	-4	-4	nt
COc1ccc(NC(=O)NC(C)c2ccc3c(c2)OCO3)c(OC)c1 (stereo unspecified)	nt	-3	nt	6304	nt	nt	6
COc1cccc(C(=O)C[n+]2cccc3cc(OC)ccc32)c1	2.5	-10	4	6801	6	-5	nt
CCCCOC(=O)c1ccc(NC(=S)NC(=O)c2ccco2)cc1	-0.2	0	16	5667	19	19	-9
CC(=O)N1CC(C)Sc2ccc(S(=O)(=O)NC(C)c3ccccc3)cc21 (stereo unspecified)	1.6	-13	-2	4533	2	-15	5
CC(=O)N1CCc2cc(Br)cc(S(=O)(=O)N3CCN(c4ccccn4)CC3)c21	1.7	-11	7	4575	nt	nt	-6
CC(=O)Nc1ccc(NC(=O)CSc2ccc([N+](=O)[O-])cn2)cc1	6.3	-24	2	4840	-1	-5	3
COc1ccccc1OCC(=O)NNC(=O)Nc1ccccc1	2.7	-31	16	4559	5	1	1
Cc1cc(OC(C)C(=O)NCCCn2ccnc2)c2c(C)cc(=O)oc2c1 (stereo unspecified)	-1.2	0	7	4857	8	6	-2
O=C(CN1CCN(C(=O)c2cccc(S(=O)(=O)N3CCCC3)c2)CC1)Nc1ccc(F)cc1	5.0	-21	10	3319	-5	-5	nt
COc1cc(OC)c(N2CC(C(=O)NCCC3=CCCCC3)CC2=O)cc1Cl (stereo unspecified)	0.8	7	-1	?	-1	4	nt
CC(NC(=O)OCc1ccccc1)C(=O)NCC1CCCO1 (stereo unspecified)	7.8	-16	-3	22834*	7	5	2
COc1ccc(NC(=O)c2c(-c3c(Cl)cccc3Cl)noc2C)c(OC)c1	-3.0	-7	-6	3519	11	12	-11
CCOc1ccc(-c2noc(=O)[nH]2)cc1	0.2	2	4	3926	nt	nt	2
C/C(=N\NC(=O)c1ccc(NS(=O)(=O)c2cccs2)cc1)c1ccc2c(c1)OCO2	nt	10	nt	3200	nt	nt	0
COc1cc(/C=C2/C(=O)N(c3ccc([N+](=O)[O-])cc3)N=C2N2CCOCC2)ccc1O	2.9	0	10	4425	8	10	-2
O=S(=O)(NNC(=S)Nc1ccc(S(=O)(=O)Nc2ncccn2)cc1)c1ccc(Br)cc1	-0.7	-27	-1	6705	14	15	-3
N#CSCC(=O)N1c2ccccc2CCc2ccccc21	36	-3	34	1914	19	9	-7
CC(=O)c1ccc(C(=O)Nc2nnc(-c3ccc(Cl)cc3)o2)cc1	98*	-16	99*	5021	2	5	2
COC(=O)C(C(=O)OC)C(CC(=O)c1ccc(C)cc1)c1cc(OC)c(OC)c(OC)c1 (stereo unspecified)	1.7	-18	6	3959	5	4	-3
O=C(NCC1(N2CCCCC2)CCCCC1)c1cccc(S(=O)(=O)Nc2ccc(F)cc2)c1	0.3	-23	4	3678	-1	-2	nt
N/C(=N\OC(=O)COc1cc(Cl)c(Cl)cc1Cl)c1ccccn1	8.1	-78	-1	4011	15	2	2
O=C1CC(c2ccsc2)Sc2ccccc2N1 (stereo unspecified)	5.4	-11	2	?	0	-1	7

(next part)
SMILES	Sa RN4220 lethal	PrP UTR inh	ugtP null kill	Autofluor counter	Mtb hypoxia rep	Mtb hypoxia rep growth	BJeLR viability
Brc1ccccc1-c1nnc2sc(Cc3ccccc3)nn12	7.5	-10	-3	8345	6	8	6
O=C(/C=C/c1ccccc1)OCc1cnc(Cl)s1	0.2	-21	10	4393	9	6	1
COc1ccccc1CNC(=O)c1cn(C)c(=O)c2cc(OC)c(OC)cc12	6.5	-26	4	4419	8	2	3
CCSc1nc2sc3c(c2c(=O)n1CC)CCC3	4.6	-2	-10	3072	10	5	-5
CCCCC(=NNC(=O)c1ccc(Br)o1)c1ccccc1	9.9	nt	-7	nt	7	7	nt
Cc1ccc(S(=O)(=O)Nc2ncc(C(F)(F)F)cc2Cl)cc1	3.6	-20	5	2484	-4	-3	-3
COC(=O)C(C)(C)ONC(=O)Nc1ccccc1	2.5	-9	8	2492	2	4	-6
O=C(/C=C/c1cccc(F)c1)N1CCN(c2ccccn2)CC1	-3.9	-18	-6	4565	-12	11	-10
COc1ccc(N2CCN(CC(=O)Nc3ccc(C)cc3Br)CC2)cc1	0.2	-7	-3	3576	-2	8	nt

Molecules from the list above with four or more nitrogen atoms:
SMILES	Sa RN4220 lethal	PrP UTR inh	ugtP null kill	Autofluor counter	Mtb hypoxia rep	Mtb hypoxia rep growth	BJeLR viability
Cc1ccc(C(=O)Nc2nnc(-c3ccncc3)s2)o1	2.5	-44	-2	20328*	1	5	16
Nc1nc2c(nc(Br)n2[C@@H]2O[C@@H]3COP(=O)(O)O[C@H]3[C@H]2O)c(=O)[nH]1	nt	-6	nt	4573	nt	nt	2
O=C1NC(=O)[C@]2(Cc3ccccc3N3CCN(c4ccccc4)CC32)C(=O)N1c1ccccc1 (stereo partly specified)	5.4	-22	-7	24028*	0	10	-2
Cc1cc(C(=O)N/N=C/c2cccn2C)n[nH]1	nt	-6	nt	2435	nt	nt	13
COc1ccc(C)cc1Nc1cc(C)nc2nc(C)nn12	-3.3	-12	-3	4353	nt	nt	-6
CN(C(=O)COC(=O)c1cc(=O)[nH]c2ccccc12)c1c(N)n(Cc2ccccc2)c(=O)[nH]c1=O	3.3	-57	-5	5287	4	3	-16
O=C1CN(c2ccc(Cl)cc2)C(=O)CN1NC(=S)Nc1ccc(Cl)cc1	5.1	-13	4	2279	8	12	1
O=C(NN=C/C=C/c1ccccc1[N+](=O)[O-])c1cccnc1	-0.1	nt	1	nt	-4	-4	nt
CC(=O)N1CCc2cc(Br)cc(S(=O)(=O)N3CCN(c4ccccn4)CC3)c21	1.7	-11	7	4575	nt	nt	-6
CC(=O)Nc1ccc(NC(=O)CSc2ccc([N+](=O)[O-])cn2)cc1	6.3	-24	2	4840	-1	-5	3
O=C(CN1CCN(C(=O)c2cccc(S(=O)(=O)N3CCCC3)c2)CC1)Nc1ccc(F)cc1	5.0	-21	10	3319	-5	-5	nt
COc1cc(/C=C2/C(=O)N(c3ccc([N+](=O)[O-])cc3)N=C2N2CCOCC2)ccc1O	2.9	0	10	4425	8	10	-2
O=S(=O)(NNC(=S)Nc1ccc(S(=O)(=O)Nc2ncccn2)cc1)c1ccc(Br)cc1	-0.7	-27	-1	6705	14	15	-3
Brc1ccccc1-c1nnc2sc(Cc3ccccc3)nn12	7.5	-10	-3	8345	6	8	6

Outcome played no part in choosing rows; overall some 4% were active at least once.
